CBX7 AlphaScr = CBX7 inhibition, primary AlphaScreen; AID 1224903; AlphaScreen His6-CBX7 / biotin-H3K27me3 peptide binding; stronger effect = lower value; actives 1.1% (n = 66,000); O95931; normalised signal (fraction of DMSO) (no concentration beside the values); in the data active means normalised signal below about 0.5;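 further: 100 nL library stock added to about 20 µL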
Target sequence (O95931 whole entry, looked up): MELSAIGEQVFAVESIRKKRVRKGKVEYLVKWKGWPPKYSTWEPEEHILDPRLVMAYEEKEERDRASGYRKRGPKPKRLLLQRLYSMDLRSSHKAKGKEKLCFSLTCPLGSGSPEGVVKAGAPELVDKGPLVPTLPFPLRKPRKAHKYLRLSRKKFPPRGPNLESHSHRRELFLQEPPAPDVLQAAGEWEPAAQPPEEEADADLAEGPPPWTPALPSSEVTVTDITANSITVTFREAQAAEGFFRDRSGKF
CBX7 AlphaScr z-score = second read-out of CBX7 AlphaScr, no call of its own (marks repeat the call); z-score; measured here: z-score of CBX7 signal; some inactives read as strong as hits; reference of the scale not given here;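 same signal on another scale; lower means less binding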
An asterisk follows results filed as active; & = joins results of further samples.

canonical_smiles,CBX7 AlphaScr,CBX7 AlphaScr z-score
COc1ccc(CC(=O)NC(C)C(c2cccs2)N2CCN(c3ccccc3)CC2)cc1OC (centres undefined),0.91,-0.99
COCCCNC(=O)C1c2ccccc2C(=O)N2CCc3ccccc3C12 (centres undefined),0.9,-1.6
CC1CCN(S(=O)(=O)c2ccc3nc(-c4cccnc4)cc(C(=O)NCc4ccc5c(c4)OCO5)c3c2)CC1,0.98,-1.1
CN(C(=O)c1ccc2c(=O)n3c(nc2c1)CCCCC3)c1ccccc1,0.86,-2.3
O=C(Nc1ccccc1C(=O)Nc1ccccc1)c1cccc(S(=O)(=O)N2CCOCC2)c1,1.1,1.5
Cc1ccc2c(c1)c(=O)c(C(=O)c1ccccc1)cn2Cc1cccc(F)c1,0.7,-1.1
Cc1c(C(=O)NCc2ccc(Cl)cc2)sc2ncn(Cc3ccccc3Cl)c(=O)c12,1.1,0.73
O=C(Nc1ccc2c(c1)OCCO2)c1cnc2ccccn2c1=O,1,1.1
Clc1ccccc1C1CC(c2cccs2)Nc2nnnn21 (centres undefined),1,0.17
Cc1ccc(C(C)C)c(OCCOc2cccc(-c3nc4sc5c(c4c(=O)[nH]3)CCCC5)c2)c1,1,0.55
O=C1CC(c2ccccc2)n2nc(NS(=O)(=O)c3ccccc3)nc2N1 (centres undefined),1.1,1
COc1ccc(NS(=O)(=O)c2ccc3c(c2)CCN3C(=O)C2CCC2)cc1Cl,0.92,-2.2
O=c1c2ccccc2cnn1CCOc1ccccc1,1.1,1.2
O=C(c1c[nH]c2ccc(S(=O)(=O)N3CCOCC3)cc2c1=O)N1CCCC1,1.2,2.8
CCOC(=O)c1cnc2c(C)c(Cl)ccc2c1N1CCOCC1,0.92,-0.83

Structures from the list above with four or more nitrogen atoms:
canonical_smiles,CBX7 AlphaScr,CBX7 AlphaScr z-score
CC1CCN(S(=O)(=O)c2ccc3nc(-c4cccnc4)cc(C(=O)NCc4ccc5c(c4)OCO5)c3c2)CC1,0.98,-1.1
Clc1ccccc1C1CC(c2cccs2)Nc2nnnn21 (centres undefined),1,0.17
O=C1CC(c2ccccc2)n2nc(NS(=O)(=O)c3ccccc3)nc2N1 (centres undefined),1.1,1

Next part
canonical_smiles,CBX7 AlphaScr,CBX7 AlphaScr z-score
CCCN1Cc2cccc(C(=O)Nc3ccc4c(c3)OCO4)c2C1=O,1,0.024
COc1cc(C)ccc1OCCOCCn1c(-c2ccc(Cl)cc2)nc2ccccc2c1=O,1.7,6.7
Cc1[nH]c2ccccc2c1CCNC(=O)NC(=O)c1cccc(Cl)c1,0.66,-0.7
COc1ccc(-c2cc(C(=O)N3CCCCCC3)no2)cc1,1.4,2.3
COc1ccc(CCNC(=O)c2cc(-c3ccc(Cl)cc3)on2)cc1OC,1,0.88
O=C(NCc1ccccc1)c1cnn(-c2ccccc2)c1-n1cccc1,1.1,3.1
CCCCN1C(=O)C(O)(c2c[nH]c3ccccc23)c2ccccc21 (centres undefined),1,-0.048
CCCCc1ccc(NC(=O)C(CC(C)C)N2C(=O)c3ccccc3C2=O)cc1 (centres undefined),1,-0.19
Cc1ccc(Nc2c(-c3cc(Br)ccc3F)nc3ccc(Cl)cn23)cc1,1,0.97
O=S(=O)(NCCSc1nc2ccccc2s1)c1ccccc1,1.1,0.97
COc1ccc(C2=NOC(C(=O)NCC(C)C)C2)cc1 (centres undefined),0.99,-0.19
CCN(CC)C(=O)c1oc2ccc(S(=O)(=O)N3CCCCCC3)cc2c1C,0.79,-3.9
COc1ccc(NC(=O)c2c(NCc3ccccn3)sc3c2CCC3)cc1,0.85,-2.9
Cc1ccc2c(c1)C(c1ccccc1)N(C(=O)c1cc(Cl)ccc1Cl)CC(=O)N2 (centres undefined),1,0.04
CCc1ccc(NC(=O)CN(C)S(=O)(=O)c2c(C)noc2C)cc1,1.1,3.2
COc1ccc(C2CC(c3ccc(Br)cc3)Nc3ncnn32)cc1OC (centres undefined),1,0.47
COc1ccc(CC(=O)N2CC(=O)Nc3ccc(F)cc3C2c2ccc(F)cc2)cc1 (centres undefined),0.86,-2.6
COc1ccc(-c2cc(C(=O)NCCC(c3ccccc3)c3ccccc3)c3ccccc3n2)cc1OC,1.9,3
Cc1ccc(-c2ccc(=O)n(CC(=O)NCc3cccnc3)n2)cc1,1,2.1
CCC(=O)n1c2c(c3cc(F)ccc31)CN(CCc1ccccc1)CC2,0.89,-1.6
CCOc1ccc(-c2nc(CSCC(=O)NCc3ccc(OC)cc3)c(C)o2)cc1,0.82,-2.5
Cc1ccc(Cn2c(C3CC(=O)N(c4ccccc4F)C3)nc3ccccc32)cc1 (centres undefined),0.94,-0.44
O=C(CSc1nccn1-c1cccc(Cl)c1)Nc1ccc(F)cc1,0.86,-2.5
COc1ccc(-c2cc(C(=O)Nc3ccn(Cc4ccc(C)cc4)n3)no2)cc1OC,1.1,3
CC(C)N(Cc1ccccc1)C(=O)c1cc2c(s1)-c1ccccc1OC2,1.1,2
CC1CCN(C(=O)CNC(=O)Cn2ccc3ccccc3c2=O)CC1,1,0.28
O=C(NCCN1CCN(c2ccccc2F)CC1)C1c2ccccc2C(=O)N2CCc3ccccc3C12 (centres undefined),0.95,-1.6
CCOC(=O)c1sc(NC(=O)c2ccc(Br)cc2)nc1-c1ccccc1,1.1,0.66
COc1ccccc1Nc1nc(-c2ccccc2)cs1,0.56&0.86,-9.5&-2.3
CC1CCCC(C)N1CCCNC(=O)CN1C(=O)CSc2ncccc21 (centres undefined),1,0.011
Cc1ccn2cc(-c3cccc(S(=O)(=O)N4CC(C)CC(C)C4)c3)nc2c1 (centres undefined),0.96,-1.5
CCOc1ccc(Nc2cc(C)nc3ncnn23)cc1,1,0.25
OC(COc1ccccc1Cl)Cn1cnc2ccccc21 (centres undefined),0.25*,-8*
Cc1nc2cc(NC(=O)c3ccc(Br)cc3)ccc2n1-c1ccccc1,0.96,-0.47
COc1ccc(-c2cn3c(C)c(C(=O)Nc4ccc(F)cc4F)sc3n2)cc1,0.92,-1.3
CN1CCN(c2nc(-c3ccc(Cl)cc3)nc3ccccc23)CC1,0.99,-0.044
CCOC(=O)N1CCC(Nc2c(OCC)c(=O)c2=O)CC1,1,0.74
Cc1ccc(Cn2nnc3c(=O)n(CC(N)=O)cnc32)cc1,1,0.43
CC1CCC(NC(=O)C2CCN(C(=O)c3cc4sccc4n3Cc3ccc(Cl)cc3)CC2)CC1 (centres undefined),1,1.4
COc1ccccc1NC(=O)CSc1nnnn1-c1ccc(C(=O)O)cc1,1.1,2.7
O=C(NCCc1ccccc1)[C@H](CSCc1ccccc1)N1Cc2ccccc2C1=O,0.94,-1.5
O=C(Nc1cccnc1Cl)c1cc(-c2ccc(Br)cc2)on1,1,0.32
CCCc1nc2nc(C)cc(Nc3cccc(Cl)c3)n2n1,0.94,-0.7
COc1ccc(-c2cn3c(C)c(C(=O)Nc4ccccc4F)sc3n2)cc1,0.93,-1.3
CCC1Oc2ccc(C)cc2N(CC(=O)NCCN(CC)c2ccccc2)C1=O (centres undefined),0.94,-3.1
CCOc1cc2c(cc1OCC)C(c1cccc(OC)c1OC)NCC2 (centres undefined),1.2,2.1
COC(=O)c1cc2ccsc2n1CC(=O)Nc1ccccc1C(F)(F)F,1,1.2
CN1CCN(C(=O)CN2C(=O)CCSc3ccccc32)CC1,1.2,3.6
Cc1cc(S(=O)(=O)Nc2ccc3oc4c(c3c2)CC(C(C)(C)C)CC4)ccc1Cl (centres undefined),0.93,-0.77
O=c1cc(N2CCc3ccccc3C2)[nH]c(=O)n1-c1ccc(Cl)cc1,1,0.27
COc1ccc(C)cc1NC(=O)C1CCN(S(=O)(=O)c2c(C)noc2C)CC1,0.92,-3.3
O=C1CN(C(=O)COc2ccc(Cl)cc2)C(c2ccccc2)c2cc(F)ccc2N1 (centres undefined),0.96,-1
COCCn1c(=O)[nH]c2cc(C(=O)N3CCN(c4ccc(OC)cc4)CC3)ccc2c1=O,0.98,-0.87
CC(C)(C#CCN1CCCCC1)OCCOC(c1ccccc1)c1ccccc1,0.94,-1.4
COc1ccc(Nc2ncc(C(=O)N3CCOCC3)c3ccccc23)cc1,1,0.36
O=C(N1CCN(c2ccccc2F)CC1)C1(S(=O)(=O)c2ccc(Cl)cc2)CC1,1,0.54
CCCc1nc(N2CCCCC2)c(C#N)c2c1CCCC2,1.1,1.8
Cc1cc(C)cc(-n2ccnc2SCC(=O)Nc2nccs2)c1,0.93,-2.5
COc1ccc(Nc2ncc(C(=O)Nc3ccc(C)cc3Br)c3ccccc23)cc1,1.1,1.6
CCC(C)NC(=O)c1cc(Sc2nnc(C)s2)nc2ccccc12 (centres undefined),1,0.9

The list goes on.
canonical_smiles,CBX7 AlphaScr,CBX7 AlphaScr z-score
O=C(Nc1nc(-c2nc3ccccc3s2)cs1)c1ccc(S(=O)(=O)N2CCCCC2)cc1,1,0.023
COCCn1cc(C(=O)N2CCC(C)CC2)c2c3ccccc3n(C)c2c1=O,0.98,-0.68
CCC(C)NC(=O)c1cc(=O)[nH]c2ccc(Br)cc12 (centres undefined),1,0.068
CCCN(CCC)S(=O)(=O)c1ccc(C(=O)Nc2nnc(-c3ccc(Cl)s3)o2)cc1,1,0.52
O=C(COc1nsnc1N1CCOCC1)Nc1cccc(F)c1,1.1,1.2
CCCC(C)c1c(O)nc(Nc2nc(C)c3ccc(C)cc3n2)[nH]c1=O (centres undefined),0.95,-1.3
Cc1ccc(C(=O)N(Cc2nc(-c3ccc(C)cc3)no2)C(C)C)cc1,0.94,-0.37
Brc1ccc(-n2cc(-c3ccccc3)c3c(NCc4ccc5c(c4)OCO5)ncnc32)cc1,1.1,2.1
Cc1ccc(-n2c(-c3ccccc3)nc3c(cnn3-c3ccccc3)c2=O)cc1,0.99,-0.3
Nc1nonc1-c1noc(-c2ccc(COc3cc(Cl)ccc3Cl)cc2)n1,1.1,1.9
O=S(=O)(NCC(c1ccccc1)n1cc(-c2ccccc2)nn1)c1ccc(Cl)cc1 (centres undefined),1,0.45
COc1ccccc1OC(C)C(=O)Nc1c(C(=O)c2ccc(Cl)cc2)oc2ccccc12 (centres undefined),1.3,3.8
Cc1ccc(NS(=O)(=O)c2cc(Br)cc3c2N(C(=O)C2CC2)CC3)c(C)c1,0.95,-2.1
Cc1ccc(C)c(N2CCN(c3cc(C)nc4c(-c5ccccc5)c(C)nn34)CC2)c1,1.2,7.4
O=C(Nc1nnc(/C=C/c2ccccc2)s1)c1ccccc1,1.1,2.2
CCOC(=O)CNC(=O)c1cc(-c2cccs2)nc2ccccc12,1,0.64
Cc1ccc(NC(=O)c2csc3c2CCCC3)cc1Cl,1.3,13
COc1ccc(C(=O)Nc2c(C(=O)c3ccccc3)oc3ccccc23)cc1,1.2,0.69
O=C(O)c1cccnc1Oc1ccc(F)cc1,1,0.22
Cc1ccc(S(=O)(=O)C2(C(=O)Nc3ccc4c(c3)OCO4)CC2)cc1,1,1.3
Cc1ccc(S(=O)(=O)c2nc(-c3ccc(Cl)cc3Cl)oc2N2CCCCC2)cc1,0.74,-13
CN(C)c1oc(-c2ccc(Cl)cc2)nc1P(=O)(c1ccccc1)c1ccccc1,1,-0.16
Cc1ccc(-c2ccc(=O)n(CC(=O)NCCCOC(C)C)n2)cc1,0.99,-0.39
COc1ccc(Cl)cc1NC(=O)CCc1nc(-c2ccccc2F)no1,1,-0.15
CCOC(=O)c1cnc2c(OC)cccc2c1NCCOC,1,0.048
CCOC(=O)c1cnc2c(C)cc(Cl)cc2c1Nc1cccc(C)c1,1.1,0.41
O=C(c1ccccc1)c1ccc2[nH]c(=O)c(Cc3ccccc3Cl)nc2c1,0.81,-2
c1ccc(C(c2ccccc2)c2nc(-c3cccnc3)no2)cc1,0.32*,-12*
Cc1ccc(Oc2ccc(NC(=O)c3ccc(N4C(=O)c5ccccc5C4=O)cc3)cc2)cc1,0.83,-1.4
COc1ccccc1N1C(=O)C2C3C=CC(C3=C(c3ccccc3)c3ccccc3)C2C1=O (centres undefined),0.9,-3.6

Reprinted at random: three compounds from above.
canonical_smiles,CBX7 AlphaScr,CBX7 AlphaScr z-score
CCOC(=O)N1CCC(Nc2c(OCC)c(=O)c2=O)CC1,1,0.74
CN(C(=O)c1ccc2c(=O)n3c(nc2c1)CCCCC3)c1ccccc1,0.86,-2.3
CCCCN1C(=O)C(O)(c2c[nH]c3ccccc23)c2ccccc21 (centres undefined),1,-0.048

Later entries:
canonical_smiles,CBX7 AlphaScr,CBX7 AlphaScr z-score
COc1ccc(-c2cc3nc(C)c(CCC(=O)NCc4cccc(Cl)c4)c(C)n3n2)c(OC)c1,1,0.21
COc1ccc(-n2c(Cc3cc(=O)[nH]c(=O)[nH]3)nnc2SCC(=O)Nc2ccccc2F)cc1,1,0.15
CN(c1ccccc1)C(C(=O)NC1CCCC1)c1ccccc1 (centres undefined),1,1.3
O=C(CN1C(=O)CSc2ccccc21)NCCc1ccc(Cl)cc1,0.72,-4.9
O=C(Nc1ccc2oc(-c3ccccc3F)nc2c1)c1ccccc1F,1,2
CCC(C)NC(=O)CCCN1C(=O)COc2ccc(C)cc21 (centres undefined),0.99,-0.12
Cc1ccc(-n2cc(C(=O)Nc3ccc(Br)cc3C)c3ccccc3c2=O)cc1C,1,-0.065
Cc1ccc(NC(=O)C(NS(=O)(=O)c2cccs2)C(C)C)cc1 (centres undefined),1,0.59

Arranged by value in CBX7 AlphaScr z-score (low to high): some entries from above
Structure | CBX7 AlphaScr z-score
COc1ccc(-n2c(Cc3cc(=O)[nH]c(=O)[nH]3)nnc2SCC(=O)Nc2ccccc2F)cc1 | 0.15
Cc1ccc(NC(=O)C(NS(=O)(=O)c2cccs2)C(C)C)cc1 (centres undefined) | 0.59
O=C(Nc1ccc2oc(-c3ccccc3F)nc2c1)c1ccccc1F | 2

Not all compounds are listed, so the mix of outcomes need not match the whole.
